From PubChem
PTEN del growth – growth suppression of PTEN-null HCT116, primary screen, cell-based, CellTiter-Glo; HCT116 PTEN-null viability, 60 h; active compounds read low; viability, % at 10 µM; 140,000 tested, 1.2% active; AID 827, 2007;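 active = viability at or below a set limit, 4 SD under the median of all tested compounds, cut at about 3.7% in these data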;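 also: PTEN knockout HCT116 line with beta catenin targeted HCT116 as companion control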
MRP-1 activ – H69AR viability gain despite doxorubicin, primary screen, MRP-1 activator project, H69AR cells, CellTiter-Glo. viability rescue. viability increase, % at 10 µM. 140,000 tested, 0.61% active;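 active = viability gain under doxorubicin at or above a set limit, the compound median plus 3 SD, cut at about 4.7% in these data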;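 also: MRP-1 overexpressing cells given doxorubicin 25 µM after compound pretreatment; 18-22 h compound pretreatment then 72 h with doxorubicin before readout; 0% = doxorubicin-only wells and 100% = vehicle-treated cells without doxorubicin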
HCT116 bCat-KO – primary screen for growth suppressors in beta-catenin knockout HCT116 cells (colon tumor, human). HCT116 beta-catenin knockout viability, CellTiter-Glo, 60 h; active compounds read low. viability, % at 10 µM. 140,000 tested, 1.5% active;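 active = viability at or under a set limit, the compound median less 4 SD, cut at about 6% in these data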;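 also: 0% = Hyamine 1622 control at 20 µM and 100% = untreated cell control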
GALR2 blocker – GALR2 antagonists in receptor-expressing cells, primary screen | antagonist mode | inhibition, % at 4 µM | 140,000 tested, 0.39% active; in the data active = inhibition above about 27%;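 also: cells stimulated with galanin 1-16 at roughly its EC80; 0% = agonist challenge control and 100% = basal control without agonist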
Target sequence (O43603 whole entry, looked up): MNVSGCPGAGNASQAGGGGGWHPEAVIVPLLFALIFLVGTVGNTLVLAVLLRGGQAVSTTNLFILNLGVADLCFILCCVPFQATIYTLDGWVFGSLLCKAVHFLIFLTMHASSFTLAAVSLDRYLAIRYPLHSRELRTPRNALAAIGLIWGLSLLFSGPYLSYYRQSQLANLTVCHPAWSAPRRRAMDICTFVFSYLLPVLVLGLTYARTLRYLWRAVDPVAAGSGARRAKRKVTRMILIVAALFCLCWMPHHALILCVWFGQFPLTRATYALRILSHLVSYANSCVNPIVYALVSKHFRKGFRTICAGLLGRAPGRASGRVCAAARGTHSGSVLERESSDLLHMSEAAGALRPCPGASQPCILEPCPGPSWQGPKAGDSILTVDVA
Measles CPE – compounds protecting cells from measles virus cytopathic effect, primary screen, measles RdRp inhibitor project, single point, MLSMR library, absorbance | protection (pct of control), % at 4 µM | AID 841, 2007 | Measles virus-infected cells, CPE protection | 140,000 tested, 1.5% active; in the data active = protection mostly above about 24%, no sharp cut-off; inactive = mostly below about 26%; also: some compounds called inactive have numbers as strong as hits
Active calls of the source: *; & = joins results of further samples. The list is partial, so the mix of outcomes need not match the whole.

item | compound | PTEN del growth | MRP-1 activ | HCT116 bCat-KO | GALR2 blocker | Measles CPE
1 | N[C@@H](Cc1cc(I)c(Oc2ccc(O)c(I)c2)c(I)c1)C(=O)O | 79&89 | -2.2&-2.3 | 88&90 | 9&1 | 14&4
2 | COc1ccc(/C(N)=N/OC(=O)CSc2ccccc2)cc1 | 102 | 0.3 | 97 | -7 | 12
3 | c1ccc2sc(SN3CCOCC3)nc2c1 | 98 | -0.6 | 94 | 11 | 10
4 | O=C(O)COCCN1CCN(C(c2ccccc2)c2ccc(Cl)cc2)CC1 (configuration not stated) | 99 | -0.7 | 92 | -9 | 3
5 | Cc1ccc2c(CC(=O)N3CCN(S(=O)(=O)c4ccc5c(c4)OCCO5)CC3)coc2c1 | 78 | 0.1 | 85 | -20 | 8
6 | Cc1ccnc(NS(=O)(=O)c2ccc(N)cc2)n1 | 89 | -1.1 | 104 | -2 | 3
7 | O=C(O)Cn1nc(C(F)(F)F)c2c1CCCCC2 | 94 | -0.8 | 99 | -5 | 2
8 | Cc1ccnc2c1NC(=O)c1cccnc1N2C1CC1 | 125 | -0.2 | 103 | 0 | 20
9 | COc1cc(S(=O)(=O)n2c(C)nc3ccccc32)ccc1F | 96 | -0.5 | 98 | 1 | 1

Three compounds drawn at random from the list so far:
item | compound | PTEN del growth | MRP-1 activ | HCT116 bCat-KO | GALR2 blocker | Measles CPE
6 | Cc1ccnc(NS(=O)(=O)c2ccc(N)cc2)n1 | 89 | -1.1 | 104 | -2 | 3
1 | N[C@@H](Cc1cc(I)c(Oc2ccc(O)c(I)c2)c(I)c1)C(=O)O | 79&89 | -2.2&-2.3 | 88&90 | 9&1 | 14&4
5 | Cc1ccc2c(CC(=O)N3CCN(S(=O)(=O)c4ccc5c(c4)OCCO5)CC3)coc2c1 | 78 | 0.1 | 85 | -20 | 8

Already shown: an excerpt of the list.
item | compound | PTEN del growth | MRP-1 activ | HCT116 bCat-KO | GALR2 blocker | Measles CPE
1 | N[C@@H](Cc1cc(I)c(Oc2ccc(O)c(I)c2)c(I)c1)C(=O)O | 79&89 | -2.2&-2.3 | 88&90 | 9&1 | 14&4
2 | COc1ccc(/C(N)=N/OC(=O)CSc2ccccc2)cc1 | 102 | 0.3 | 97 | -7 | 12
3 | c1ccc2sc(SN3CCOCC3)nc2c1 | 98 | -0.6 | 94 | 11 | 10
4 | O=C(O)COCCN1CCN(C(c2ccccc2)c2ccc(Cl)cc2)CC1 (configuration not stated) | 99 | -0.7 | 92 | -9 | 3
